Source: PubChem BioAssay (several laboratories)
Mtb hypoxia rep: Mtb hypoxia fluorescent reporter inhibition; M. tuberculosis hypoxia-regulated fluorescent reporter, fluorescence; fluorescence inhibition, % (test concentration not listed); 0.1% of 300,000 active; AID 1159583;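 active = 35 to 45% if threefold the growth effect, above 45% if 1.5-fold the growth effect; inactive = the rest, general growth blockers included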;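 also: wells of about 50 µL received 100 nL stock; 0% = vehicle wells and 100% = reference inhibitor wells; whole bacteria with a GFP reporter of the hypoxia response; strong numbers were not always called active; many hits fall short of the cut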
BJeLR lethal: kills HRASV12-expressing BJeLR cells; BJeLR (HRASV12) viability, CellTiter-Glo ATP luminescence, 48 h; reference of the scale not given here; inhibition, % (no concentration beside the values); 0.17% of 300,000 active;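 active = replicate mean above 50%; inconclusive = above 50% but judged a plate artefact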;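 also: 50 nL library stock added to about 25 µL; numbers are from one replicate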
Sa RN4220 lethal: S. aureus RN4220 growth inhibition; OD600, 16 h; inhibition, % (test concentration not listed); 0.33% of 330,000 active; AID 1259311;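 active = z-score of -3 or lower and OD600 up to 0.18 on both plates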;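 also: plate controls were untreated cells for no effect and reference antibiotic for full effect; stock transfer was 100 nL into about 80 µL; one replicate is shown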
PrP 5UTR inh: suppresses PrP 5' UTR mRNA reporter expression. cell-based PrP 5' UTR mRNA reporter, plate reader. inhibition, % (test concentration not listed). 0.35% of 340,000 active. AID 488862;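 active = every replicate at 50% or more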;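 also: 0 = median of the neutral control wells; tested in H4 reporter cells; numbers are from one replicate; inactives centre near -14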
Autofluor counter: flagged as autofluorescent in microsphere protease counterscreen. compound autofluorescence counterscreen, microsphere flow cytometry; hits give high values. fluorescence intensity (concentration not given with the values). 3.1% of 360,000 active. AID 624483;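 active = at least 3 SD above the mean of all compounds, about 16000 in these data; inconclusive = too few beads counted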;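 also: 100 nL of 1 mM stock went into each well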
ugtP null kill: kills S. aureus RN4220 lacking UgtP; S. aureus RN4220 ugtP deletion, OD600 growth, 16 h; some inactives read as strong as hits; growth inhibition, % (concentration not given with the values); 0.54% of 330,000 active;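 active = z-score under -3 and OD600 up to 0.15 on both plates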;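 also: plate controls were untreated wells for no effect and antibiotic for full effect; wells of about 80 µL received 100 nL stock; the first replicate is given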
Mtb hypoxia rep growth: also measured in Mtb hypoxia rep; calls as there; growth inhibition, %; measured here: M. tuberculosis growth (absorbance);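 0% = vehicle and 100% = reference antibiotic; read after six days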
Starred values were filed as active, the others as inactive; ? = inconclusive; . = not tested or not shown; & = joins results of further samples.

SMILES	Mtb hypoxia rep	Mtb hypoxia rep growth	BJeLR lethal	Sa RN4220 lethal	PrP 5UTR inh	Autofluor counter	ugtP null kill
CCSc1nc2c(c(=O)[nH]c(=O)n2C)n1C/C=C(/C)Cl	.	.	.	2.7	3	3618	2
O=C(O)CSc1nc2ccccc2n1-c1ccccc1	4	5	-3	2.5	-49	3352	12
Cn1c(N)c(C(=O)COC(=O)Cc2cccc(C(F)(F)F)c2)c(=O)n(C)c1=O	1	-4	.	3.8	-30	3533	-8
CN(Cc1cc(=O)[nH]c2ccccc12)C(=O)c1ccccc1	2	1	-9	2.6	-19	19977*	-1
COc1ccc(NC(=O)c2ccc(C)cc2)c[n+]1[O-]	11	-1	0	1.1	-27	3691	12
COc1ccccc1[C@@H]1C(c2cccc(C)c2)=NN(c2ccccc2)[C@H]1C(=O)N1CCOC1=O	.	.	-8	.	-25	4105	.
O/N=C/c1ccccc1OCc1ccccc1F	.	.	-4	.	-15	2273	.
COc1cc(CNc2ccccc2SC)cc(OC)c1OC	4	5	8	4.6	-28	7447	-2
COc1cc(C=NNC(=O)c2ccc(-c3ccccc3)cc2)cc(OC)c1OC(C)=O	13	6	.	25	.	.	2
CCOC(=O)C1CCCN(C(=O)COc2ccc(N(C)S(=O)(=O)c3ccc(F)cc3)cc2)C1 (configuration not stated)	2	-4	-11	1.3	-22	3750	-2
COc1ccc(Cl)cc1S(=O)(=O)n1cnc2ccccc21	4	5	9	-3.6	-9	2815	-4
COCCNC(=S)N(c1ccccc1)C(C)C	-9	5	-9	0.2	37	3277	-9
NC(=O)CC[C@@H]1NC(=O)[C@H](Cc2ccc(O)cc2)NC(=O)c2cc([N+](=O)[O-])cc(F)c2OCC[C@@H](C(N)=O)NC1=O	.	.	-2	.	-17	4027	.
CCOC(=O)C1=C(C)Nc2nnnn2C1c1cccnc1 (configuration not stated)	10	6	3	3.0	-14	3554	0
CCOC(=O)C(C(=O)OCC)C(=O)c1cc(OC)c(OC)c(OC)c1	.	.	-5	-1.8	-8	2957	2
CC(C(=O)N1CCN(C(=O)c2ccco2)CC1)N1C(=O)NC2(CCCCC2C)C1=O (configuration not stated)	8	8	.	4.3	-18	3447	6
CC(=O)Nc1cccc(C(=O)NN=Cc2cccnc2)c1	-4	-3	.	3.4	.	.	6
COC(=O)C1=C(N)Oc2cc(C)n(C)c(=O)c2C1c1ccc(Cl)c(Cl)c1 (configuration not stated)	4	-6	1	9.2	-28	3290	2
CN(C)CCCNC(=O)N1c2ccccc2C=Cc2ccccc21	11	7	2	2.3	-1	3349	9
CC(=O)Nc1nc2c(ccc3ccccc32)s1	18	9	3	0.4	-40	3429	2
COc1cccc(CN(C)C(=O)Cc2c[nH]c3ccccc23)c1	-6	-9	-9	3.2	5	5938	-1
COc1ccc(C(C(=O)NCc2ccccc2)N(Cc2cccs2)C(=O)c2cnccn2)cc1 (configuration not stated)	-5	2	-5	-0.4	-10	5891	-7
Cc1cc(C)nc(Nc2nc(=O)c3ccccc3s2)n1	8	6	-13	-9.1	-58	2797	-7
O=C(CN(c1ccccc1)S(=O)(=O)c1ccccc1[N+](=O)[O-])Nc1ccccc1C(=O)N1CCOCC1	8	4	-3	4.8	-15	4507	13
CC(C)c1ccc(N2C(=NC(=O)C3CC3)SC3CS(=O)(=O)CC32)cc1 (configuration not stated)	3	5	7	1.7	0	5609	-4

(continued)
SMILES	Mtb hypoxia rep	Mtb hypoxia rep growth	BJeLR lethal	Sa RN4220 lethal	PrP 5UTR inh	Autofluor counter	ugtP null kill
COc1cc(OC)nc(NC(=O)NS(=O)(=O)c2ccc(OC(F)(F)F)cc2)n1	.	.	0	-1.4	-13	4175	2
c1ccc2c(NCC3CCCO3)nc(N3CCOCC3)nc2c1 (configuration not stated)	14	1	8	2.8	2	3249	4
O=S(=O)(c1ccc(Cl)c2ccccc12)N1CCCC1	13	11	8	8.3	-5	4128	4
COCc1c(Br)c(C)nc2sc3c(=O)[nH]nnc3c12	-9	-1	-7	5.4	-8	2995	-1
CCOc1ccc2nc(N3CCOCC3)nc(C)c2c1	.	.	10	0.3	-78	5871	5
Cc1ccc(S(=O)(=O)N(C)CC(=O)NCC(=O)Nc2ccc(F)c(F)c2F)cc1	4	6	.	-0.4	-34	3938	-2
N#CC1=C(N)Oc2cc(O)ccc2C1c1ccc(Br)s1 (configuration not stated)	-8	14	4	11	2	3921	11
O=C(CSc1nnc(NC2CCCCC2)s1)Nc1ccc2c(c1)C(=O)c1ccccc1C2=O	.	.	3	.	-11	2187	.
CCOC(=O)C(=NC1CCS(=O)(=O)C1)NNc1ccc(Br)cc1 (configuration not stated)	3	2	3	7.3	-1	4347	22
Cc1cnc(NC(=O)CSc2nc3ccccc3c(=O)[nH]2)s1	.	.	-6	6.2	4	4674	-4
CC(=NNC(=O)Cn1cnc2ccccc21)c1cccs1	6	1	.	6.1	.	.	8
CC(C)CCN1C(=O)c2ccc(-c3nc4ccccc4c(=O)o3)cc2C1=O	9	2	-2	3.9	-13	7147	6
Cc1ccnc(NC(=O)c2sc3cc(Cl)ccc3c2Cl)c1	-9	-3	-3	4.2	-93	2121	8
CC1CN(C(=O)COC(=O)c2ccc(Cl)c(S(=O)(=O)N3CCCCC3)c2)CC(C)O1 (configuration not stated)	4	-1	13	4.1	-40	2274	8
ON=C1CCCSc2ccccc21	4	-1	.	3.8	.	.	4
COc1ccccc1NS(=O)(=O)c1cccc(NC(=O)c2nc3nc(C)cc(C)n3n2)c1	.	.	7	4.1	-7	4435	1
COc1ccc(NC(C)=O)cc1CNC(=O)CN1CCOCC1	16	10	-2	6.3	-1	3130	6
O=C(NCc1nc2ccccc2[nH]1)C1=CC(c2ccc(Br)cc2)CC(OCc2ccc(CO)cc2)O1 (configuration not stated)	16&9	8&1	.	4.5&1.5	.	.	16&-13
O=c1oc2ccc3ccccc3c2cc1-c1nc2ccccc2o1	-2	0	3	25	-21	4400	-6
Cc1ccc(S(=O)(=O)N2CCOCC2)cc1NC(=O)Cn1cc(C(F)(F)F)cc(Cl)c1=O	11	4	14	7.8	-4	2191	-2
O=C(NCC(c1cccnc1)N1CCOCC1)C1CCCCC1 (configuration not stated)	4	3	-8	0.1	-13	4081	4
COc1ccc(N2CCN(C(=O)[C@@H](NC(=O)c3cc(OC)cc(OC)c3)C(C)C)CC2)cc1	6	5	-10	4.7	4	2951	13
CC1Cc2ccccc2N1C(=O)CCNS(=O)(=O)c1ccc2c(c1)CCC(=O)N2 (configuration not stated)	4	-3	-1	2.1	2	.	6
CCOC(=O)c1ccccc1NCN1C(=O)CSC1=O	3	10	-18	3.9	-16	11443	0
Cc1ccc(NC(=S)N(CCN(C)C)Cc2cc3cc(C)cc(C)c3[nH]c2=O)cc1	-3	3	2	0.7	-31	2261	1

Later entries.
SMILES	Mtb hypoxia rep	Mtb hypoxia rep growth	BJeLR lethal	Sa RN4220 lethal	PrP 5UTR inh	Autofluor counter	ugtP null kill
Cc1ccc([C@@H]2[C@@H]3C(=O)N(C)C(=O)[C@@H]3[C@]3(C)C(=O)N(Cc4ccc(-c5ccccc5)cc4)CC(=O)N23)o1	.	.	-3	.	-28	3030	.
COc1ccc(S(=O)(=O)NCc2ccc(C(=O)NCCCN3CCCC(C)C3)cc2)cc1 (configuration not stated)	2	2	3	1.4	-8	7157	2
Cc1ccc(N(Cc2ccccc2)C(=O)c2cccc(F)c2)cc1	-5	1	2	-1.0	-34	?	8
COc1ccc2c(Cl)c(-c3nnco3)sc2c1	.	.	-6	-0.1	-24	3463	-2
Cc1ccc(NC(=O)C(c2ccccc2)N2CCN(CC(=O)NC3CC3)CC2)cc1 (configuration not stated)	5	-2	.	0.1	-43	3569	3
COCCNC(=O)COc1ccc(Nc2ccccc2)cc1	14	8	5	4.2	-24	4115	5
CN1C(=O)c2ccc(NC(=O)c3ccc(Cl)cc3Cl)cc2C1=O	-3	1	2	2.1	-11	.	-4
Cc1cc(C)n(C(=O)COc2ccccc2[N+](=O)[O-])n1	-9	7	-2	3.8	-20	5939	3
CCN1C(=O)N[C@@H](CCc2ccccc2)[C@H](C(=O)OC)[C@H]1C	.	.	-1	.	-14	3468	.
Cc1cccc(NC(=O)CSCC(=O)N(C)Cc2ccc(Cl)c(Cl)c2)c1	1	5	.	2.3	1	3589	-10
COc1ccc(C2=NC(C)(C)Cc3cc(OC)c(OC)cc32)cc1	3	11	6	1.8	-11	4046	1
O=[N+]([O-])c1ccc(NC(=S)NCc2ccncc2)cc1	-7	-14	-1	-0.7	-39	2549	-1
O=C(O)CCn1cc(C(=O)O)c(-c2ccccc2)n1	12	9	-6	1.2	-22	4711	0
O=C(NCc1ccco1)c1ccc(S(=O)(=O)N2CCCc3ccccc32)cc1	20	6	-4	16	-17	9455	-11
COc1ccc(Cl)cc1NC(=O)CNc1ccccc1N1CCOCC1	11	-2	5	7.6	-23	4389	-2
CCOC(=O)Cc1nnc(NC(=O)c2ccccc2OCC)s1	14	13	2	-4.8	-4	2931	-3
O=C(Nc1cc(C(F)(F)F)ccc1N1CCOCC1)C1CC1	0	9	.	-2.7	-10	9102	-1
CS(=O)(=O)c1nc(S(=O)(=O)c2ccc(Cl)cc2)c(N2CCC3(CC2)OCCO3)s1	13	0	12	3.4	-5	5847	11
Cc1ccc(C)c(NC(=O)CS(=O)(=O)c2cccc3nsnc23)c1	-18	4	7	-4.8	-19	4594	-11
Cc1c(C)c2ccc(OCC(=O)NCCCn3ccnc3)c(C)c2oc1=O	3	-2	11	-0.2	-13	5145	2
COc1ccccc1N(C)S(=O)(=O)c1ccc(Cl)c(C(=O)NCc2cccnc2)c1	5	2	-8	1.1	-14	6078	-2
Cc1cccc(C)c1OCc1nnc(SCC(=O)Nc2cccc(C(=O)N3CCOCC3)c2)n1C	4	-9	3	-0.7	-15	6969	-9
CC(=O)N(C(C)=O)N1C(=O)c2cccc3c(N4CCOCC4)ccc(c23)C1=O	12	8	-4	6.0	-31	3404	5
O=C(CC(C(=O)O)c1ccccc1)Nc1ccccc1 (configuration not stated)	0	-1	1	1.6	-20	1895	1
COC(=O)c1cc(Cl)c(NC(=O)c2ccco2)cc1OC	16	12	1	3.6	-28	3141	-7

Two entries from above, with two lines to a compound.
Values run as follows: Mtb hypoxia rep	Mtb hypoxia rep growth	BJeLR lethal	Sa RN4220 lethal	PrP 5UTR inh	Autofluor counter	ugtP null kill
O=c1oc2ccc3ccccc3c2cc1-c1nc2ccccc2o1
  -2	0	3	25	-21	4400	-6
Cc1ccc(S(=O)(=O)N2CCOCC2)cc1NC(=O)Cn1cc(C(F)(F)F)cc(Cl)c1=O
  11	4	14	7.8	-4	2191	-2

Back to the main list, repeating the 4 entries before the break.
SMILES	Mtb hypoxia rep	Mtb hypoxia rep growth	BJeLR lethal	Sa RN4220 lethal	PrP 5UTR inh	Autofluor counter	ugtP null kill
Cc1cccc(C)c1OCc1nnc(SCC(=O)Nc2cccc(C(=O)N3CCOCC3)c2)n1C	4	-9	3	-0.7	-15	6969	-9
CC(=O)N(C(C)=O)N1C(=O)c2cccc3c(N4CCOCC4)ccc(c23)C1=O	12	8	-4	6.0	-31	3404	5
O=C(CC(C(=O)O)c1ccccc1)Nc1ccccc1 (configuration not stated)	0	-1	1	1.6	-20	1895	1
COC(=O)c1cc(Cl)c(NC(=O)c2ccco2)cc1OC	16	12	1	3.6	-28	3141	-7
CSc1ncccc1C(=O)OCC(=O)c1ccc(Br)s1	-6	-6	-10	6.7	-14	2190	5
CN(C)/C=C/C(=O)c1ccc2noc(-c3ccc(F)cc3)c2c1	7	-6	-3	4.9	-10	4214	11
Cc1cccc(NC(=O)CCCn2cc([N+](=O)[O-])cn2)n1	6	7	11	11	-14	4657	3
CCOc1ccc(N(CC(=O)Nc2cccnc2)S(C)(=O)=O)cc1	5	0	3	3.7	0	3385	11
Cc1cc(C(=O)NC2CCCc3c2cnn3-c2ccc(C)c(C)c2)no1 (configuration not stated)	-2	-5	11	1.9	-5	4396	1
CCN(CC)S(=O)(=O)c1ccc2c(c1)nc(CCC(=O)Nc1ccc3c(c1)OCO3)n2CC	0	14	4	-0.5	-12	2381	-5
CC(=O)c1sc(NN=Cc2c(O)ccc3ccccc23)nc1C	6	13	.	0.9	.	.	-17
O=C(NCC(=O)N1CCCC1C(=O)O)OC1CCCCC1 (configuration not stated)	.	.	-3	1.2	4	2329	0
Cc1cccc(-n2c(C)cc(/C=N\NC(=O)c3ccco3)c2C)c1	.	.	2	.	-37	2653	.
